RN4220 kill = S. aureus RN4220 growth inhibition | OD600, 16 h | inhibition, % (concentration not given with the values) | hit rate 0.33% among 330,000;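 active = z-score of -3 or lower and OD600 up to 0.18 on both plates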;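 note: plate controls were untreated cells for no effect and reference antibiotic for full effect; stock transfer was 100 nL into about 80 µL; one replicate is shown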
BJeLR lethal = kills HRASV12-expressing BJeLR cells; BJeLR (HRASV12) viability, CellTiter-Glo ATP luminescence, 48 h; reference of the scale not given here; inhibition, % (no concentration beside the values); hit rate 0.17% among 300,000; AID 1554;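 active = replicate mean above 50%; inconclusive = above 50% but judged a plate artefact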;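 note: 50 nL library stock added to about 25 µL; numbers are from one replicate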
Mtb hypoxia rep = reduces hypoxia-regulated biosensor signal in M. tuberculosis; M. tuberculosis hypoxia-regulated fluorescent reporter, fluorescence; fluorescence inhibition, % (concentration not given with the values); hit rate 0.1% among 300,000;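 active = 35 to 45% if threefold the growth effect, above 45% if 1.5-fold the growth effect; inactive = the rest, general growth blockers included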;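 note: wells of about 50 µL received 100 nL stock; 0% = vehicle wells and 100% = reference inhibitor wells; whole bacteria with a GFP reporter of the hypoxia response; strong numbers were not always called active; many hits fall short of the cut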
PrP UTR inh = suppresses PrP 5' UTR mRNA reporter expression; cell-based PrP 5' UTR mRNA reporter, plate reader; AID 488862; inhibition, % (concentration not given with the values); hit rate 0.35% among 340,000;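 active = every replicate at 50% or more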;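 note: 0 = median of the neutral control wells; tested in H4 reporter cells; numbers are from one replicate; inactives centre near -14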
Bead autofluor = flagged as autofluorescent in microsphere protease counterscreen | fluorescence intensity (test concentration not listed) | compound autofluorescence counterscreen, microsphere flow cytometry; hits give high values | hit rate 3.1% among 360,000 | AID 624483;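 active = at least 3 SD above the mean of all compounds, about 16000 in these data; inconclusive = too few beads counted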;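 note: 100 nL of 1 mM stock went into each well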
ugtP null kill = kills S. aureus RN4220 lacking UgtP. growth inhibition, % (no concentration beside the values). S. aureus RN4220 ugtP deletion, OD600 growth, 16 h; some inactives read as strong as hits. hit rate 0.54% among 330,000;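 active = z-score under -3 and OD600 up to 0.15 on both plates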;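 note: plate controls were untreated wells for no effect and antibiotic for full effect; wells of about 80 µL received 100 nL stock; the first replicate is given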
Mtb hypoxia rep growth = also measured in Mtb hypoxia rep; calls as there; growth inhibition, %; measured here: M. tuberculosis growth (absorbance);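 0% = vehicle and 100% = reference antibiotic; read after six days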
An asterisk follows results filed as active; u = inconclusive; x = not tested or not shown.

Values run as follows: RN4220 kill	BJeLR lethal	Mtb hypoxia rep	Mtb hypoxia rep growth	PrP UTR inh	Bead autofluor	ugtP null kill
- COc1ccc(NC(=O)CN(c2ccc(OC)c(Cl)c2)S(=O)(=O)c2ccccc2)c(OC)c1
→ -3.2	8	-8	9	-1	3949	-16
- COc1ccc2nc3cc(Cl)ccc3c(Nc3cc(CN4CCCC4)c(O)c(CN4CCCC4)c3)c2n1
→ -2.8	18	4	1	x	4851	-7
- C=CCn1c(SCC(=O)NC(=O)c2cccc([N+](=O)[O-])c2)nnc1-c1ccccc1
→ 2.4	5	3	0	-13	1924	4
- Cc1cc(C(=O)CSc2nc3ccccc3o2)c(C)n1C1CC1
→ 11	-5	19	12	-86	8119	12
- CCN(CC(=O)Nc1ccc2c(c1)OCCO2)CC(=O)Nc1ccc(C)c([N+](=O)[O-])c1
→ 5.4	x	7	9	-19	2923	13
- Nc1nonc1-n1nnc(C(=O)N/N=C/c2ccc(Cl)cc2)c1-c1ccc2c(c1)OCO2
→ x	-3	x	x	-7	5809	x
- C=CCNC(=O)c1ccc(C2SCC(=O)N2Cc2ccco2)cc1 (centres undefined)
→ 0.8	-8	-11	-1	-50	4393	-5
- COc1ccc(CCNC(=O)C(=O)NCC2OCCN2S(=O)(=O)c2ccc(OC)c(OC)c2)cc1OC (centres undefined)
→ -13	-16	2	1	-25	6430	-3
- COc1ccc(OC)c(NC(=O)CSc2nc3n[nH]c(C)c3c(=N)n2-c2cccc(Cl)c2C)c1
→ -4.7	-9	7	-3	-23	5276	-7
- COc1ccc(NC(=O)CN(c2ccccc2OC)S(=O)(=O)c2cccs2)cc1Cl
→ 4.8	x	1	-2	12	2824	5
- Cc1csc(CNc2ncnc3ccc(-c4cccnc4)cc23)c1
→ 5.8	x	2	3	-6	3464	-13
- Cc1c(C=NNC(=O)c2ccc(O)cc2)c2ccccn2c1C(=O)c1ccc(F)cc1
→ -1.8	x	0	9	x	x	-4
- Cn1c(=O)c([N+](=O)[O-])c(NC2CCS(=O)(=O)C2)c2ccccc21 (centres undefined)
→ 4.5	1	-8	2	-7	3981	6
- CN1CCN(c2ccc(CNS(=O)(=O)c3cccc(F)c3)cc2)CC1
→ 1.6	4	3	7	-25	4323	-1
- Cc1cc(C)n(CCC(=O)NN=Cc2ccc(O)cc2)n1
→ -1.0	x	14	10	x	x	5
- COc1ccc([N+](=O)[O-])cc1N(CC1CO1)S(=O)(=O)c1ccc(C)cc1 (centres undefined)
→ 4.9	-5	1	10	-20	4738	8
- CCCOc1ccc(CSc2ncn[nH]2)cc1
→ -0.8	-5	x	x	-23	4594	5
- CCC1CCCCN1S(=O)(=O)c1c(C)n(C)c(=O)n(C)c1=O (centres undefined)
→ 3.8	-1	12	3	-14	6992	5
- CC1(C)CCCN(C(=O)c2ccc3c(c2NCCO)C(=O)c2ccccc2C3=O)C1
→ x	1	x	x	-13	2065	x
- COc1cccc(C(=O)NNS(=O)(=O)c2ccc(F)cc2)c1
→ 5.6	-3	1	-1	-46	4310	9
- O=c1[nH]c(=O)n(C2CCCCCC2)c(O)c1C=NCc1cccnc1
→ 1.8	6	16	3	-29	6329	3
- Cc1nnc(N2C(=O)C(O)=C(C(=O)c3ccco3)C2c2ccc(F)cc2)s1 (centres undefined)
→ 13	-1	x	x	-16	4120	7
- CC1CCCCC12NC(=O)N(CC(=O)N1CCN(C(=O)c3cccs3)CC1)C2=O (centres undefined)
→ -3.1	x	-3	4	-20	5676	-3
- CS(=O)(=O)c1ccc(Cl)c(NC(=O)COC(=O)c2ccc(S(=O)(=O)N3CCCC3)cc2)c1
→ 2.9	x	9	6	-20	3635	0
- Cc1cccc(Oc2ccccc2NC(=O)CN2C(=O)NC3(CCCC3)C2=O)c1
→ 3.8	-2	9	2	-13	5401	-2
- Clc1ccc(N=c2ssnc2Cl)nc1
→ 26	-4	7	3	-34	4455	95*
- CCN(CC)S(=O)(=O)c1ccc(/C=C/C(=O)OCC(=O)Nc2cccnc2Cl)cc1
→ 7.0	x	18	6	-9	x	3
- CCOc1ccc(NC(=O)COC(=O)CNC(=O)c2ccc(-c3ccccc3)cc2)cc1
→ -2.9	x	14	11	-22	8981	4
- COc1cc(C(=O)Nc2nc(-c3ccc(F)cc3)cs2)ccc1OCC(=O)N1CCOCC1
→ 5.5	5	4	-2	-2	2518	-12
- O=C(c1ccsc1)N1CCCC(Nc2ccc(F)c(F)c2)C1 (centres undefined)
→ 0.6	11	9	3	-12	5979	-1
- CCOc1cc2[nH]c(=S)n(Cc3ccc(C)o3)c(=O)c2cc1OCC
→ 1.6	-21	13	4	-19	17111*	52
- CCCCC(CC)CO (centres undefined)
→ -0.3	x	x	x	-14	5497	-8
- CNC(=O)NC(=O)CSc1ncc(C(F)(F)F)cc1Cl
→ 4.7	10	8	6	-12	10634	7
- CCOC(=O)C1C2COc3cc(OC)ccc3C2N2C(=O)CN(Cc3ccc(C)cc3)C(=O)[C@@]12C (some centres undefined)
→ 0.7	x	-1	10	x	x	-13
- O=C(C[n+]1ccc(CCSc2ccc(F)cc2)cc1)c1ccccc1
→ -7.0	0	8	8	-36	6909	14
- CCn1nnnc1SCC(=O)NCc1ccco1
→ 3.1	4	-2	-4	-3	3246	7
- COc1ccc(OCCCC(=O)OCC(=O)NNC(=O)c2ccc([N+](=O)[O-])cc2)cc1
→ 4.4	-7	-1	3	-14	5837	11
- CCCCC(c1nnnn1CC1CCCO1)N1CCN(c2cc(Cl)ccc2C)CC1 (centres undefined)
→ 12	-4	x	x	-6	2913	7
- O=C(Nc1nc(-c2cccc3ccccc23)cs1)c1cnccn1
→ -6.1	-12	13	7	-27	2406	-3
- O=S(=O)(NCc1ccc(F)cc1)c1ccc2c(c1)OCCO2
→ 3.7	6	-3	4	-22	10027	0
- CCn1c(SCC(=O)N2CCN(c3ccccc3)CC2)nc2c(c1=O)SC(C)C2 (centres undefined)
→ -13	12	2	6	-27	5456	-7
- C=CCSc1nc2ccccc2c(=O)n1C1CCOC(C)(C)C1 (centres undefined)
→ 4.1	7	4	3	-6	x	16
- CCn1c(=O)c2cc(S(=O)(=O)NCc3ccccc3)ccc2n(CC)c1=O
→ 12	6	5	6	-44	5610	-3
- CCC(=NNC(=O)CNC(=O)/C=C/c1ccco1)c1ccccc1
→ -7.3	x	0	1	x	x	-9
- S=c1[nH]c(-c2ccccc2)cn1/N=C/c1ccc(Br)cc1
→ x	2	x	x	-20	4457	x
- COc1cccc(CN2C(=O)[C@@H]3Cc4c([nH]c5ccccc45)C(C)(C)N3C2=O)c1
→ x	1	x	x	-18	3147	x
- Cc1cc(C(=O)CCl)c(C)n1Cc1ccco1
→ 15	8	x	x	-17	5870	8
- COc1ccc2[nH]cc(CCNC(=O)C3CCCNC3=O)c2c1 (centres undefined)
→ 4.1	4	9	8	1	4605	-5
- Cc1ccc(N2C(=O)[C@@H]3[C@H](C2=O)[C@H]2C=C(C(=O)c4ccccc4)C=CN2[C@@H]3C(=O)c2ccc(Cl)cc2)cc1
→ 7.1	-1	9	8	18	2494	9
- CCOC(=O)c1cccc(NC(=O)CCNS(=O)(=O)c2ccc3c(c2)CCN3C(=O)CC)c1
→ 3.8	-4	5	12	-10	3621	1
- NC(=NOC(=O)c1ccc(F)cc1)c1cccc([N+](=O)[O-])c1
→ 5.3	x	10	10	x	x	7
- O=C(NCc1ccco1)Nc1ccc(OC(F)(F)F)cc1
→ 0.1	-1	-3	4	-18	3895	-1
- Cc1ccc2c(c1)sc[n+]2Cc1ccccc1
→ 21	6	13	9	-88	7993	99*
- COc1ccc(Nc2nc(NCc3ccco3)nc(NN=Cc3ccc(O)cc3)n2)cc1
→ 9.2	x	4	3	x	x	2
- Cn1cccc1-c1cc(C(=O)NN=Cc2ccc([N+](=O)[O-])cc2)[nH]n1
→ 2.4	x	7	-4	x	x	-7
- O=C(CSc1nnc(C2CC2)n1-c1ccccc1)NCc1ccco1
→ -0.4	1	9	15	-12	3501	0
- CC(=O)N1CCN(C(=O)CCN(c2ccccc2)S(=O)(=O)c2ccc(C)cc2)CC1
→ 3.7	-3	6	7	-31	5708	2
- CC(CC(=O)NC12CC3CC(CC(C3)C1)C2)=NNC(=O)c1ccc(F)cc1
→ 6.6	x	12	8	x	x	1
- CC(=O)Nc1nc2ccccc2n1Cc1ccccc1Cl
→ 6.0	12	-13	14	-33	4758	7
- CCCSc1ccc(C2N[C@@](C)(C(=O)OC)C3C(=O)N(C)C(=O)C23)cc1OC (some centres undefined)
→ 6.9	x	3	3	x	x	5

Continued.
Values run as follows: RN4220 kill	BJeLR lethal	Mtb hypoxia rep	Mtb hypoxia rep growth	PrP UTR inh	Bead autofluor	ugtP null kill
- C=CCc1cccc(/C=N/NC(=O)CNc2cccc3ccccc23)c1O
→ x	11	x	x	-21	2096	x
- CS(=O)(=O)N1CCC(C(=O)c2cccc(Cl)c2)CC1
→ 1.4	-16	6	2	-33	7910	4
- Cc1ccc(-c2nn(-c3ccccc3Cl)cc2C(=O)NCC2CCCO2)cc1 (centres undefined)
→ 0.9	-5	7	-4	-16	5972	3
- Cc1ccc(S(=O)(=O)N2CCN(C(=O)CSc3nc(N)cc(=O)[nH]3)CC2)c(C)c1
→ -0.2	5	12	2	-29	2693	-4
- CC(C)(C)NC(=O)Cn1c(SCC(=O)NC2CC2)nc2ccccc21
→ 1.0	1	-10	-10	-7	5643	11
- COc1ccc(Nc2nc(C(F)(F)F)nc(C)c2C#N)cc1
→ 6.9	4	4	2	-16	1885	1
- COc1cc2c(cc1OC)C1=C(C#N)CCC(=O)N1CC2
→ 1.9	-5	x	x	-8	2908	11
- CCOC(=O)c1c(-c2ccc(F)cc2)csc1NC(=O)C1CCCO1 (centres undefined)
→ 1.8	1	0	4	-23	2077	13
- O=c1[nH]c(=S)n(Cc2ccc(F)cc2)c(O)c1C=NCCCn1ccnc1
→ 1.6	1	-13	-6	-19	4317	0
- C[n+]1ccccc1C1CCCC/C1=N\Nc1ccc([N+](=O)[O-])cc1[N+](=O)[O-] (centres undefined)
→ x	-11	x	x	-12	7616	x
- CCCn1nnnc1SCC(=O)N(C(C)C)C(C)C
→ 1.5	0	x	x	1	3254	11
- CNC(=S)N1CCC(NC(=O)C(Cc2ccc(OC)cc2)NC(C)=O)CC1 (centres undefined)
→ 5.1	-10	-7	-2	-20	3397	3
- O=C1c2ccccc2C(=O)N1Cc1nc2ccccc2c(=O)n1CCCn1ccnc1
→ 15	x	x	x	-23	2935	16
- O=C(O)CCC(=O)NNC(=O)c1cccs1
→ 7.5	2	-3	3	-18	4799	4
- Cc1ccc(S(=O)(=O)/N=C(\c2ccc(Cl)cc2)N2CCOCC2)cc1
→ x	0	x	x	-5	2634	x
- COc1ccc(/C=N/n2cncn2)cc1COc1ccc(NC(C)=O)cc1
→ x	-6	x	x	-23	4324	x
- CN(C)c1ccc(S(=O)(=O)N2CCCCC2)cc1NC(=O)CN1C(=O)NC(C)(c2ccccc2)C1=O (centres undefined)
→ 0.0	-10	5	9	-13	u	5
- CSc1ccccc1NC(=O)c1ccc(N2CC3CC(C2)c2cccc(=O)n2C3)c(NC(=O)c2ccncc2)c1 (centres undefined)
→ 10	5	4	3	3	5570	-2
- CCCCNC(=O)CSc1nc2ccc(NC(=O)CSc3nnc(N)s3)cc2s1
→ 2.8	14	21	6	1	1991	9
- CC(=O)NC(Cc1ccc(C(C)C)cc1)C(=O)NC1CCN(c2nc(C)cc(C)n2)CC1 (centres undefined)
→ 3.7	-4	x	x	-17	4041	0
- NC(=O)NCC(=O)N1CCC(C(O)(c2ccccc2)c2ccccc2)CC1
→ 2.4	-8	0	3	-7	4325	9
- COc1ccc(-c2cc(C(F)(F)F)nc(S(=O)(=O)CCCC(=O)Nc3cccnc3Cl)n2)cc1OC
→ 1.1	x	-3	-14	0	3846	2
- O=C(CCC(=O)Nc1cccc2ccccc12)NN=Cc1ccco1
→ 4.5	x	5	2	x	x	3
- Cc1ccc(S(=O)(=O)N(C)CCCC(=O)Nc2cc(C)ccc2C)cc1
→ -5.1	2	-6	7	-6	4257	-18
- Cc1ccc(C=Nn2nnnc2N)cc1
→ 3.8	x	12	7	x	x	7
- OCC1(CCc2ccccc2)CCN(Cc2cccn2-c2cccnc2)CC1
→ 5.5	1	5	6	-1	3689	3

High-throughput results deposited in PubChem BioAssay by several laboratories.

Compounds as they come. Share with any hit: about 3.9%.
